A647 fluor – compound autofluorescence in A647 spectral region | Compound fluorescence, A647 channel (570/671 nm), Tris buffer | max dye-equivalent concentration, M | 59,000 tested, under 10 active | AID 592; active means above 1 µM dye equivalent; inconclusive means 0.1 to 1 µM; inactive means 0.1 µM or less;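 further: values scaled relative to a standard on each plate; highest value over a series up to 38 µM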
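Compound fluorescence was measured in 100 mM Tris buffer, pH 8.0, after 15 min at room temperature, using 570 nm excitation and 671 nm emission filters. Signal was normalized to a per-plate Alexa 647 standard curve and expressed as dye-equivalent concentration at each compound concentration.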
A488 autofl – compound fluoresces in the A488 spectral region; compound autofluorescence, A488 spectral region, dye equivalency; stronger effect = higher value; max dye equivalency, M; actives 0.1% (n = 59,000); active = above 10 nM dye equivalent; inconclusive = 1 to 10 nM; inactive = 1 nM or less; about half of its hits are not listed in these tables;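 further: highest value over a series up to 38 µM; compound alone in buffer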
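Compounds pin-transferred into 100 mM Tris buffer, pH 8.0, incubated 15 min at room temperature, then imaged with 480 nm excitation/540 nm emission filters. Fluorescence converted to Alexa 488 dye-equivalent concentration via an on-plate six-point A488 standard curve.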
AID923 – qHTS Assay for Allosteric/Competitive Inhibitors of Caspase-1: Spectroscopic Profiling in AFC Spectral Region; AID 923, 2007; compound fluorescence, AFC spectral region (405/520 nm); almost no hit is shown here; Potency, µM (titrated, usually from 57.5 µM), inactives show at the highest dose fluorescence increase, most hits filed as activators; actives 1.1% (n = 75,000); active means well fitted activation curve with a large enough effect; inconclusive means small, poorly fitted or top-dose-only effect;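 further: potency means the concentration at half of the fitted maximal effect; 0% is about no effect; scaled to a free AFC standard on each plate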
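Compound autofluorescence profiled at 405 nm ex/520 nm em during kinetic caspase 1 run (50 nM enzyme, 5 uM Ac-WEHD-AFC, HEPES pH 7.5, 10 mM DTT). Titration up to 57 uM; baseline from regression intercept, normalized to AFC standard curve.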
TSHR ag – TSH receptor (human) agonism; P16473; HEK293-CNG-TSHR cells (CNG channel as cAMP sensor), membrane potential dye, cAMP; Potency, µM (highest dose often 57.1 µM), for the others: at the top dose activation, usual class: activators; actives 0.48% (n = 73,000); active = well fitted activation curve of enough size with the parental cells flat; inconclusive = any curve in the parental cells; inactive = parental cells flat and receptor cells flat or falling; further: potency means the concentration at half of the fitted maximal effect; % of control where 0% means no effect; weak receptor curves with flat parental cells got no call and are not listed
Target sequence (P16473 whole entry, looked up): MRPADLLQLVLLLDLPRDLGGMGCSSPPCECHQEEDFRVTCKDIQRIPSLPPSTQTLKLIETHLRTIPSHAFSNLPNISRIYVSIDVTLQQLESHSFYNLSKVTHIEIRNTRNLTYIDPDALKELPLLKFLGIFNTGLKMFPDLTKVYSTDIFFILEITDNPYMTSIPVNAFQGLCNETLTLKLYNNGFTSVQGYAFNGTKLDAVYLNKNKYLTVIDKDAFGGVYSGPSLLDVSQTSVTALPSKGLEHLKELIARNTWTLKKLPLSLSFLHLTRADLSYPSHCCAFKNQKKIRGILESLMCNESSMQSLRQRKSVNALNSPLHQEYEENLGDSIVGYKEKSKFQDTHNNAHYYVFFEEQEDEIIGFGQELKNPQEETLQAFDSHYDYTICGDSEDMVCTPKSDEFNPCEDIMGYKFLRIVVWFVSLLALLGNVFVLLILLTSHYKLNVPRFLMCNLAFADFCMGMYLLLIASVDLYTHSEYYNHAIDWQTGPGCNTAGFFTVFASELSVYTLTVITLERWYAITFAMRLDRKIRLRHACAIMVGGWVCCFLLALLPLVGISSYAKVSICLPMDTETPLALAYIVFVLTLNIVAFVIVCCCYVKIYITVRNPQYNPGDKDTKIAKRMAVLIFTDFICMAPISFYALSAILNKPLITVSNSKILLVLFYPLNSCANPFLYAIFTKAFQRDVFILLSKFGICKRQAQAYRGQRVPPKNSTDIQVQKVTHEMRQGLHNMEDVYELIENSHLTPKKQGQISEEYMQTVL
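cAMP rise detected as CNG-channel membrane depolarization by fluorescent dye (emission 590 nm), 30 min after compound, following 60 min dye loading containing 100 uM RO 20-1724 at room temperature. Cells: TSHR/CNG HEK 293, with parental CNG HEK 293 as control.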
Resorufin fluor – resorufin region autofluorescence; Compound fluorescence, resorufin region 547/598 nm, buffer; stronger effect = higher value; max dye-equivalent concentration, M; actives 0.04% (n = 59,000); active = above 10 nM dye equivalent; inconclusive = 1 to 10 nM; inactive = 1 nM or less; a few of its hits are not listed in these tables; further: highest value over a series up to 38 µM
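Compounds in 100 mM Tris buffer, pH 8.0, incubated 15 min at room temperature, then read with 547 nm excitation and 598 nm emission filters. Fluorescence was converted to dye-equivalent concentration using an on-plate six-point resorufin standard curve.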
An asterisk follows results filed as active; i = inactive; ? = inconclusive; . = not tested or not shown; [ ] = dose if it differs, or a comment.

SMILES	A647 fluor	A488 autofl	AID923	TSHR ag	Resorufin fluor
CCn1c(N)nc2c1c(=O)n(C)c(=O)n2C	.	.	3.2%	?	.
CCOc1ccc2nc(NC(=O)C3CCCN(S(=O)(=O)c4c(C)noc4C)C3)sc2c1 (centres undefined)	.	.	-1.1%	-25%	.
CC(C)(C)n1nnnc1C(c1cccnc1)N1CCN(C(=O)c2ccco2)CC1 (centres undefined)	5e-09	i	-0.9%	1%	i
COC(=O)/C=C(\C)NC(=O)c1ccccc1Cl	.	.	3.1%	?	.
O=C(Cn1nnc(-c2ccccc2F)n1)Nc1cccc2ncccc12	1.8e-09	i	-0.2%	11%	i
CN(C)CCCN(CCCNC(=O)/C=N/O)Cc1ccccc1	1e-09	i	.	.	i
COc1ccc(CCN2C(=O)CCC2(C)C(=O)NCc2cccnc2)cc1OC (centres undefined)	1e-09	i	1.3%	1%	i
CN1CCc2c(C#N)c(N3CCCCC3)nc(N3CCOCC3)c2C1	1e-09	i	.	.	i
Cc1cc(C)n(-c2nc3sc4c(c3c3nnc(SCC(N)=O)n23)CC(C)(C)OC4)n1	9e-09	i	3.3%	6%	i
CC1(C)Cc2cccc(OCC(O)CNCc3ccccn3)c2O1 (centres undefined)	7.9e-09	i	-1.0%	17%	i
CC(C)(C)C(=O)NC1(C(F)(F)F)C(=O)Nc2c1c(=O)[nH]c(=O)n2Cc1ccco1 (centres undefined)	4.9e-08	i	-1.3%	2%	i
COc1cc(C2Nc3ccccc3C(=O)N2c2ccccc2OC)ccc1O (centres undefined)	1e-09	i	7.3%	10%	i
CC1(c2ccccc2)NC(=O)N(CC(=O)Nc2cccc(C#N)c2)C1=O (centres undefined)	6.9e-09	i	1.9%	2%	i
OCc1nc(CO)n(Cc2ccccc2)n1	1e-09	i	-1.0%	-1%	i
Cc1cc(=O)oc(C)c1C(=O)NCC(C)NC(=O)c1c(C)cc(=O)oc1C (centres undefined)	1.2e-08	i	.	.	i
CCC(=O)N1CCc2cc(Br)cc(S(=O)(=O)CC(=O)OC)c21	1e-09	i	1.4%	3%	i
Cn1cccc1C(=O)N1CCC2(CCN(C(=O)Nc3cccc(F)c3)CC2)CC1	1e-09	i	1.1%	-4%	i
O=C(O)c1ccc(Cc2ccccc2C(=O)O)cc1	1.4e-08	i	0.5%[11.5 µM]	-64%[inhibitor][11.4 µM]	i
Cn1c(SCc2nc3ccccc3[nH]2)nnc1-c1cccnc1	1e-09	i	6.0%	0%	i
CC(=O)Nc1nc(C)c(S(N)(=O)=O)s1	1.8e-08	i	-0.9%	5%[11.4 µM]	i

3 of the compounds above, with two lines to a compound:
Under each structure: A647 fluor, A488 autofl, AID923, TSHR ag, Resorufin fluor
CC1(c2ccccc2)NC(=O)N(CC(=O)Nc2cccc(C#N)c2)C1=O (centres undefined)
    6.9e-09, i, 1.9%, 2%, i
OCc1nc(CO)n(Cc2ccccc2)n1
    1e-09, i, -1.0%, -1%, i
Cc1cc(=O)oc(C)c1C(=O)NCC(C)NC(=O)c1c(C)cc(=O)oc1C (centres undefined)
    1.2e-08, i, ., ., i

Compound profiles (already shown). Order of values: A647 fluor	A488 autofl	AID923	TSHR ag	Resorufin fluor
COC(=O)/C=C(\C)NC(=O)c1ccccc1Cl as listed: .	.	3.1%	?	.
CC1(C)Cc2cccc(OCC(O)CNCc3ccccn3)c2O1 (centres undefined) as listed: 7.9e-09	i	-1.0%	17%	i
CCOc1ccc2nc(NC(=O)C3CCCN(S(=O)(=O)c4c(C)noc4C)C3)sc2c1 (centres undefined) as listed: .	.	-1.1%	-25%	.
Cc1cc(C)n(-c2nc3sc4c(c3c3nnc(SCC(N)=O)n23)CC(C)(C)OC4)n1 as listed: 9e-09	i	3.3%	6%	i

Going on with the list:
SMILES	A647 fluor	A488 autofl	AID923	TSHR ag	Resorufin fluor
CCOC(=O)N1CCN(c2cc(=O)n(C3CCCCC3)c(=O)[nH]2)CC1	2.8e-08	i	-0.5%	?	i
CCN(Cc1ccccc1)C(=O)C1CCN(Cc2ccc(OC)c(OC)c2OC)CC1	1e-09	i	-0.1%	17%	i
Brc1ccccc1C1=Nn2c(nnc2-c2ccccc2)SC1	3.2e-08	i	-0.7%	?	i
CCOc1ccc(OCC)c(NC(=O)C2CCN(c3ncccn3)CC2)c1	3.6e-09	i	1.5%	-2%	i
CC(=O)NCCn1c(C)cc2ccccc21	.	.	8.0%	14%	.
CC1(C)Cc2nc3oc4c(NCc5ccccc5)ncnc4c3cc2CO1	6.6e-09	i	-1.0%	2%	i
Cc1cc(C)n2nc(S(=O)(=O)N(CC(C)C)CC(C)C)nc2n1	.	.	0.9%	5%	.
CCOC(=O)C1CCN(c2c(NCc3ccc(C(=O)O)cc3)c(=O)c2=O)CC1	.	.	3.6%	6%	.
CC1CCC(NC(=O)CN2CCC(n3nnc4cc(F)ccc43)CC2)CC1 (centres undefined)	8.6e-09	i	-1.4%	3%	i
N#Cc1cn(-c2ccccc2)nc1-c1cc2ccccc2oc1=O	2.4e-08	i	-0.6%	?	i
Cc1ccnc(NC(=O)Nc2ccc(F)cc2)c1	.	.	-1.5%	6%	.
O=C1NCCCCC1NC1CC(=O)N(c2ccccc2)C1=O (centres undefined)	1e-09	i	1.5%	-3%	i
CN=C1CC(C)(C)CC(=O)/C1=C(/O)CCC(=O)NC	1.1e-08	i	0.8%	-1%	i
O=C(Nc1ccc(N2CCN(Cc3ccccc3)CC2)cc1)c1cccnc1	1e-09	i	0.3%	-12%	i
CC(C)C[C@H](NC(=O)[C@@H](O)[C@H](N)Cc1ccccc1)C(=O)O	.	.	-1.0%	2%	.
O=C(NCC1CCC(C(=O)O)CC1)c1cccnc1 (centres undefined)	1.7e-09	i	-0.1%	-2%	i
CCOC(=O)c1cccc(S(=O)(=O)N(CCO)Cc2cc3cc(OC)c(OC)cc3[nH]c2=O)c1	7.4e-09	i	0.5%	-5%	i
CCOC(=O)/C=c1\s/c(=C(\C#N)C(=O)OCC)n(-c2ccccc2)c1=O	1e-09	i	.	.	i
CCCNC(=O)OC[C@H]1O[C@@H](CCO/N=C\[C@@H](NS(=O)(=O)c2ccc(C)cc2)[C@H](C)/C=C\CC(=O)OC)C=C[C@@H]1Oc1ccc(OC)cc1	.	.	0.1%[11.5 µM]	0%[11.4 µM]	.
CN1CCN(c2nc(C(N)=O)cc(-c3ccccc3)n2)CC1	1.1e-08	i	.	.	i
Cc1ccccc1OCc1nnc(SCC(=O)Nc2ccc3c(c2)oc2ccccc23)n1C	2e-09	i	0.8%	-3%	i
CC(=O)N1C2(C=CC1(C)C(=O)NCc1ccc(C)o1)CCCCC2 (centres undefined)	.	.	-2.0%	6%	.
Cc1ccc(CCN2CC(C(=O)NC3CCCC3)CC2=O)cc1 (centres undefined)	1e-09	i	0.6%	8%	i
O=c1cc(O)sc2ccccc12	.	.	-1.1%	-2%	.
Cc1nc(SCC(=O)NCc2ccco2)c2c3c(sc2n1)CCCC3	2e-08	i	0.4%	?	i
O=c1nc(-c2ccccc2)cc(-c2ccccc2)[nH]1	.	.	1.7%	6%[11.4 µM]	.
COc1ccc(C2N(c3cc(Cl)ccc3OC)C(=O)C3CCCN32)cc1 (centres undefined)	.	.	0.0%	7%	.
c1coc(CNc2ncnc3sc4c(c23)CCCCC4)c1	1e-09	i	-2.1%	?	i
Cc1nc2cc(O)ccc2n1C	4.1e-09	i	-2.5%	-3%	i
Cc1ccc(CCNc2ccccc2)c[n+]1[O-]	1.2e-08	i	0.6%	-8%	i
Cc1nnc(SCC(=O)N2CCC(c3noc4ccc(F)cc34)CC2)s1	6.4e-09	i	-1.7%	5%	i
COC(=O)c1ccccc1NC(=O)C(C)NS(=O)(=O)c1ccc(OC)cc1 (centres undefined)	2e-08	i	-3.9%	.	i
Cc1ccc(S(=O)(=O)NCCCOC(=O)Nc2ccncc2)cc1	2.6e-08	i	1.3%	5%	i
COc1ccc(C2C(C(=O)N3CCN(c4ccccc4F)CC3)c3ccccc3C(=O)N2C)cc1 (centres undefined)	1e-09	i	-2.0%	?	i
CCOC(=O)c1cc2c(N)c(C(=O)c3cc(C#N)c(SC)nc3C)sc2nc1C	1e-09	i	5.6%	3%	i
CC(C)n1c(SCCCc2ccccc2)nc2c1c(=O)[nH]c(=O)n2C	.	.	-0.6%	2%[11.4 µM]	.
COc1ccc(-c2nnc(SCc3nnc(-c4ccc(Cl)cc4)o3)n2-c2ccccc2)cc1	1e-09	i	-0.2%	?	i
CCOC(=O)c1c(N)sc(C(N)=O)c1C	.	.	0.4%	2%	.
COc1ccc(-n2nc(C(=O)NCC(=O)NCc3ccco3)c3ccccc3c2=O)cc1	1.7e-08	i	0.0%	8%	i
CCn1c(CNc2ccc(OC)cc2)nnc1SCC(=O)N1CCCc2ccccc21	5.3e-09	i	-0.1%	11%	i
CC1(C)Cc2c(C#N)c(NCCCO)nc(-c3ccccc3)c2CO1	.	.	1.9%	21%	.
Cc1occc1C(=O)NC1CCCCCC1	.	.	3.4%	20%	.
O=C(c1cccc(F)c1)N1CCC2(CCN(Cc3nccs3)CC2)CC1	1.5e-09	i	2.1%	?	i
Cc1noc(C)c1COC(=O)C1CC(O)CN1S(=O)(=O)c1ccc(Cl)cc1 (centres undefined)	9e-09	i	3.1%	?	i
CC1Cc2ccccc2N1c1ncnc2c1nnn2Cc1ccccc1 (centres undefined)	1e-09	i	0.5%	7%	i
O=C(COc1ccccc1Cl)NCCCN1CCOCC1	2.8e-08	i	-0.3%	-1%[11.4 µM]	i
CC1(C(=O)O)Sc2[nH]c(=O)sc2C2c3ccccc3OC(=O)C21 (centres undefined)	1.1e-08	i	4.0%	-3%	i
COc1ccccc1N(CCC#N)C(=O)CSc1ccc2c(c1)OCCO2	6.5e-09	i	0.2%	25µM*	i
O=C(Nc1nc(-c2ccc(S(=O)(=O)N3CCCCCC3)cc2)cs1)c1cccs1	2.4e-08	i	1.5%	16%	i
CCCCOC(=O)CCn1c(=S)oc2ccccc21	4.8e-09	i	-1.8%	9%	i

(next part)
SMILES	A647 fluor	A488 autofl	AID923	TSHR ag	Resorufin fluor
CCOC(=O)c1ccc2nc(C)c3c(c2c1)OC(C)C3 (centres undefined)	.	.	1.9%	2%	.
CCc1ccc2c(-c3cccc(Cl)c3)nc(=O)n(CC)c2n1	.	.	-1.5%	?	.
O=C(CC(=O)c1ccncc1)c1ccccc1	1e-09	i	2.2%[11.5 µM]	5%[11.4 µM]	i
Cc1c(Cl)cccc1Nc1nc(N)nc(CSc2ncccn2)n1	3.9e-09	i	-0.7%	1%	i
CCOC(=O)c1ccccc1N/C=C1\CCCC1=O	6.3e-09	i	3.7%	19%	i
CN(C)c1nc(N)nc(Cn2ccnc2)n1	1e-09	i	5.0%	.	i
COC(=O)C1=C(Cn2cnc3ccccc32)NC(=O)NC1c1cc(C)ccc1C (centres undefined)	1e-09	i	2.2%	4%	i
CC(C)(C)N1C(=O)[C@H]2[C@H]3[C@H](O)[C@H](O)C/C(=N/NC(=O)OCc4ccccc4)[C@H]3CC[C@@H]2C1=O	.	.	2.5%[11.5 µM]	-5%[11.4 µM]	.
CCOC(=O)CSc1nnc(CNC(=O)c2ccccc2OC)n1-c1ccc(OC)cc1	3.8e-08	i	0.5%	?	i
Cn1nccc1C(=O)Nc1ccccc1C(=O)O	6.5e-08	i	.	.	i
Cc1cccc(OCCCc2c(C)n[nH]c2C)c1	.	.	0.8%	15%	.
O=C(NC1CCCCC1)c1ccc(S(=O)(=O)N2CCCCC2)cc1	7.4e-09	i	-2.3%	-4%	i
O=C(Cn1nnc(-c2ccccc2F)n1)NCCc1ccccc1	.	.	-0.2%	3%	.
Cc1onc(-c2c(Cl)cccc2Cl)c1C(=O)NCC1CCCO1 (centres undefined)	.	.	0.8%	-7%	.

Assay outcomes deposited in PubChem by National Center for Advancing Translational Sciences (NCATS).

The list is partial; count on the stated rates, not on these rows.
